Assay outcomes (PubChem BioAssay)
Vaccinia inh – blocks a specific stage of Vaccinia orthopoxvirus infection, primary screen, cell-based, single point; Vaccinia-infected cells, mCherry/Venus stage reporter fluorescence; stronger effect = lower value; some inactives read as strong as hits; activity change (mCherry), % (no concentration beside the values); 0.01% of 89,000 active; AID 1053133, 2014;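 active = mCherry past -33% and 40 or more points under the early reporter, replicates agreeing; inconclusive = past -33% without that gap or agreement; tested in A549 cells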;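 note: scaled between vehicle wells and reference inhibitor wells; 23 nL library stock went into each well; one replicate is shown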
Vaccinia inh Venus – recorded beside Vaccinia inh, whose call it bears; activity change (Venus), %; measured here: Venus reporter, other viral stage;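 negative = less Venus signal; first of two replicates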
* hit, by the source's call; u = inconclusive; x = not tested or not shown; & = joins results of further samples.

SMILES | Vaccinia inh | Vaccinia inh Venus
Cc1noc(C)c1S(=O)(=O)N(C)C[C@H]1Oc2ccc(NS(=O)(=O)c3ccccc3)cc2C(=O)N([C@@H](C)CO)C[C@H]1C | 28.7 | 11.2
CO[C@@H]1CN(C)C(=O)c2ccc(NC(=O)C3CC3)cc2OC[C@H](C)N(Cc2ccc(F)cc2)C[C@@H]1C | -24.0 | -12.7
C[C@@H]1CN([C@H](C)CO)C(=O)Cc2cc(NC(=O)CCC(F)(F)F)ccc2O[C@@H]1CN(C)C | 16.6 | 9.0
CCCNC(=O)[C@@H]1[C@@H](CO)[C@@H]2Cn3c(cccc3=O)[C@@H]2N1Cc1ccccc1Cl | 20.5 | 8.1
Cc1ccccc1S(=O)(=O)N1CC(=O)N2[C@H](CO)[C@H](c3ccc(C#CCN(C)C)cc3)[C@@H]2C1 | 12.0 | 3.4
O=C(C[C@@H]1C[C@@H]2c3cc(NS(=O)(=O)c4ccccc4)ccc3O[C@@H]2[C@@H](CO)O1)NC1CCCCC1 | -6.7 | 0.3
COc1cccc(-c2cnc3c(c2)C(=O)N([C@@H](C)CO)C[C@H](C)[C@@H](CN(C)Cc2cccnc2)O3)c1 | 3.2 | -2.7
O=C(C[C@@H]1C[C@H]2c3cc(NC(=O)Nc4ccccc4F)ccc3O[C@H]2[C@@H](CO)O1)NCCc1ccccc1 | 10.3 | 11.7
Cc1noc(C)c1NC(=O)N(C)C[C@@H]1OCCCC[C@H](C)Oc2ccc(NC(=O)c3ccccc3)cc2C(=O)N([C@H](C)CO)C[C@H]1C | 11.0 | 2.8
O=C(O)[C@@H]1[C@@H](CO)[C@@H]2Cn3c(ccc(-c4ccc(F)cc4)c3=O)[C@@H]2N1CCc1ccccc1 | 3.3 | 7.5
C[C@H]1CN([C@@H](C)CO)C(=O)c2cc(NC(=O)CCCN(C)C)ccc2O[C@H]1CN(C)C(=O)NC1CCCCC1 | 9.7 | 9.2
C[C@@H]1CN([C@H](C)CO)C(=O)c2cc(NC(=O)Nc3ccccc3)ccc2O[C@@H](C)CCCCO[C@@H]1CN(C)Cc1ccccc1 | u | x

A few values from the list:
COc1cccc(-c2cnc3c(c2)C(=O)N([C@@H](C)CO)C[C@H](C)[C@@H](CN(C)Cc2cccnc2)O3)c1 in Vaccinia inh Venus reads -2.7
C[C@H]1CN([C@@H](C)CO)C(=O)c2cc(NC(=O)CCCN(C)C)ccc2O[C@H]1CN(C)C(=O)NC1CCCCC1 in Vaccinia inh Venus reads 9.2
CO[C@@H]1CN(C)C(=O)c2ccc(NC(=O)C3CC3)cc2OC[C@H](C)N(Cc2ccc(F)cc2)C[C@@H]1C in Vaccinia inh Venus reads -12.7

Remaining list, next part.
SMILES | Vaccinia inh | Vaccinia inh Venus
O=C(c1ccc(F)cc1)N1CC(=O)N2[C@H](C1)[C@@H](c1ccc(-c3cccnc3)cc1)[C@@H]2CO | 31.8 | 2.9
COc1ccc(NC(=O)N(C)C[C@@H]2OCCCC[C@@H](C)Oc3ccc(NC(=O)Nc4c(C)noc4C)cc3C(=O)N([C@@H](C)CO)C[C@H]2C)cc1 | 8.2 | -0.5
COc1ccc2c3c(n(C)c2c1)[C@@H](CO)N(C(=O)C1CC1)CC31CN(C(=O)CN(C)C)C1 | 10.5 | 0.7
C[C@@H]1CN([C@@H](C)CO)C(=O)c2c(c3ccccc3n2C)-c2ccccc2CO[C@H]1CN(C)C(=O)c1ccccc1 | -32.1 | -29.1
CCCNC(=O)[C@H]1[C@H](CO)[C@H]2Cn3c(ccc(-c4ccccc4OC)c3=O)[C@H]2N1CC | 2.4 | 4.0
COc1ccc(NC(=O)Nc2ccc3c(c2)C(=O)N([C@H](C)CO)C[C@H](C)[C@H](CN(C)Cc2ccccc2)OCCCC[C@H](C)O3)cc1 | u | x
COc1ccc(S(=O)(=O)N(C)C[C@@H]2Oc3ccc(NC(=O)c4ccncc4)cc3C(=O)N([C@@H](C)CO)C[C@@H]2C)cc1 | 16.8 | 14.2
C[C@@H]1CN([C@H](C)CO)C(=O)c2cc(Br)cnc2O[C@H]1CN(C)C(=O)Nc1ccc(F)cc1 | 3.0 | 3.3
C[C@H]1CN([C@@H](C)CO)S(=O)(=O)c2ccc(Br)cc2O[C@@H]1CN(C)C | 18.2 | 6.2
CNc1ccccc1C(=O)OCC(=O)c1ccccc1 | 17.0 | 18.1
O=C(Cc1ccccn1)NCC[C@@H]1CC[C@@H](NC(=O)Nc2ccc(C(F)(F)F)cc2)[C@@H](CO)O1 | -13.5 | -4.9
C[C@H](CO)N1C[C@H](C)[C@H](CN(C)Cc2cncnc2)Oc2cc(C#CC3CCCC3)ccc2S1(=O)=O | -27.2 | -28.0
CCCNC(=O)C[C@@H]1CC[C@H]2[C@@H](COc3ccc(NS(=O)(=O)c4ccccc4C)cc3C(=O)N2C)O1 | 4.7 | 5.2
Cc1noc(C)c1NC(=O)N(C)C[C@H]1Oc2ncc(C#CC(C)C)cc2C(=O)N([C@@H](C)CO)C[C@H]1C | 10.0 | 8.1
O=C(C1CCOCC1)N1CC(=O)N2[C@H](CO)[C@@H](c3ccc(C#CC4CC4)cc3)[C@H]2C1 | -6.9 | -4.3
Cc1ccc(S(=O)(=O)Nc2ccc3c(c2)C(=O)N([C@H](C)CO)C[C@@H](C)[C@@H](CN(C)C)OCCCC[C@H](C)O3)cc1 | -11.1 | -12.0
CCC(=O)N1CC2(C1)CN(Cc1ccc3c(c1)OCO3)[C@H](CO)c1c2c2ccc(OC)cc2n1C | 1.7 | -11.7
O=C(C[C@H]1CC[C@@H](NC(=O)Nc2cc(F)ccc2F)[C@H](CO)O1)NCc1ccccn1 | 6.6 | 10.4
Cc1noc(C)c1NC(=O)Nc1cccc2c1O[C@@H](CN(C)Cc1ccc(C(F)(F)F)cc1)[C@@H](C)CN([C@H](C)CO)C2=O | -1.8 | 2.2
COc1ccc(NC(=O)Nc2ccc3c(c2)CC(=O)N([C@H](C)CO)C[C@@H](C)[C@H](CN(C)Cc2ccc(-c4ccccc4)cc2)O3)cc1 | -17.0 | -13.6
O=S(=O)(c1cccc(F)c1)N1[C@@H]2CNC[C@H]1C2c1ccc(-c2cccc(F)c2)cc1 (stereo not given in full) | 4.6&5.4 | 4.4&10.5
CCCC#Cc1cnc2c(c1)C(=O)N([C@@H](C)CO)C[C@H](C)[C@@H](CN(C)Cc1ccncc1)O2 | 20.5 | 7.0
Cc1ccc(S(=O)(=O)N[C@@H]2CC[C@@H](CCNC(=O)C3CCOCC3)O[C@H]2CO)cc1 | 7.8 | -0.3
C[C@H]1CN([C@@H](C)CO)S(=O)(=O)c2ccc(C3=CCCC3)cc2O[C@@H]1CN(C)S(=O)(=O)c1cn(C)cn1 | 10.7 | 2.4

Given with values under each structure: part of the list above
Every second line gives: Vaccinia inh	Vaccinia inh Venus
O=C(C[C@H]1CC[C@@H](NC(=O)Nc2cc(F)ccc2F)[C@H](CO)O1)NCc1ccccn1
 : 6.6	10.4
Cc1ccc(S(=O)(=O)Nc2ccc3c(c2)C(=O)N([C@H](C)CO)C[C@@H](C)[C@@H](CN(C)C)OCCCC[C@H](C)O3)cc1
 : -11.1	-12.0

Carrying on.
SMILES | Vaccinia inh | Vaccinia inh Venus
COc1ccc(S(=O)(=O)Nc2ccc3c(c2)C(=O)N([C@@H](C)CO)C[C@@H](C)[C@@H](CN(C)C(=O)Nc2c(C)noc2C)O3)cc1 | 10.8 | 6.6
CN(C)C(=O)[C@@H]1[C@@H](CO)[C@@H]2Cn3c(ccc(-c4cccc(F)c4)c3=O)[C@@H]2N1C(=O)c1cnccn1 | 15.5 | 7.1
O=C(Cc1ccncc1)NCC[C@@H]1CC[C@H](NC(=O)C2CCCC2)[C@H](CO)O1 | -2.9 | 1.8
CC(C)NC(=O)Nc1cccc2c1O[C@H](CN(C)S(=O)(=O)c1ccc(Cl)cc1)[C@@H](C)CN([C@@H](C)CO)C2=O | 6.6 | 6.6
CC=Cc1ccc2n(c1=O)C[C@@H]1[C@@H](CO)[C@H](C(=O)NCc3ccccn3)N(CC3CC3)[C@H]21 (mixture of isomers) | 15.8 | 16.7
COc1ccc(NC(=O)Nc2ccc3c(c2)C(=O)N([C@H](C)CO)C[C@H](C)[C@H](CN(C)S(=O)(=O)c2ccc(C)cc2)OCCCC[C@@H](C)O3)cc1 | 18.1 | 9.2
C[C@@H]1CN([C@H](C)CO)C(=O)c2cc(C3=CCCC3)cnc2O[C@H]1CN(C)C(=O)c1ccc2c(c1)OCO2 | -11.2 | -16.6
CO[C@H]1CN(C)C(=O)c2cc(NC(C)=O)ccc2OC[C@H](C)N(Cc2ccc(F)cc2)C[C@@H]1C | 17.6 | 0.4
C[C@H]1CN([C@@H](C)CO)C(=O)c2cc(-c3ccccc3)cnc2O[C@H]1CN(C)C(=O)Nc1ccccc1F | 14.1 | 1.1
O=C(NCc1ccc(F)cc1)[C@@H]1[C@@H](CO)[C@@H]2Cn3c(cccc3=O)[C@@H]2N1C(=O)C1CC1 | 4.4 | 0.9
O=C(C[C@@H]1C[C@H]2c3cc(NS(=O)(=O)c4ccccc4)ccc3O[C@H]2[C@@H](CO)O1)N1CCOCC1 | 17.0 | 15.9
C[C@@H]1CN([C@@H](C)CO)C(=O)c2cccc(NC(=O)c3cnccn3)c2O[C@@H]1CN(C)Cc1ccc(C(=O)Nc2ccccc2N)cc1 | u | x

Complete entries, quoted from the list. Screens in order: Vaccinia inh, Vaccinia inh Venus
CO[C@H]1CN(C)C(=O)c2cc(NC(C)=O)ccc2OC[C@H](C)N(Cc2ccc(F)cc2)C[C@@H]1C in the list: 17.6, 0.4
O=C(NCc1ccc(F)cc1)[C@@H]1[C@@H](CO)[C@@H]2Cn3c(cccc3=O)[C@@H]2N1C(=O)C1CC1 in the list: 4.4, 0.9
C[C@H]1CN([C@@H](C)CO)C(=O)c2cc(-c3ccccc3)cnc2O[C@H]1CN(C)C(=O)Nc1ccccc1F in the list: 14.1, 1.1
CC=Cc1ccc2n(c1=O)C[C@@H]1[C@@H](CO)[C@H](C(=O)NCc3ccccn3)N(CC3CC3)[C@H]21 (mixture of isomers) in the list: 15.8, 16.7

Later entries.
SMILES | Vaccinia inh | Vaccinia inh Venus
COc1ccc(NC(=O)N(C)C[C@H]2Oc3c(NS(=O)(=O)c4ccc(F)cc4)cccc3C(=O)N([C@H](C)CO)C[C@@H]2C)cc1 | 10.2 | 7.6
CN(C)C(=O)C[C@H]1CC[C@@H]2[C@H](COC[C@H](O)CN2CC2CCCCC2)O1 | 23.0 | 19.1
COc1ccccc1NC(=O)N1CCCCN2[C@@H](CO)[C@H](c3ccc(C#Cc4ccccc4)cc3)[C@@H]2C1 | u | x
C[C@H](CO)N1C[C@H](C)[C@H](CN(C)Cc2ccc3c(c2)OCO3)OCCCC[C@H](C)Oc2ccc(N(C)C)cc2C1=O | 5.6&-22.3 | -11.1&-4.7
C[C@H](CO)N1C[C@H](C)[C@H](CN(C)CC2CC2)Oc2cc(C#Cc3ccc(F)cc3)ccc2S1(=O)=O | u | x
COc1ccccc1-c1cnc2c(c1)C(=O)N([C@H](C)CO)C[C@H](C)[C@@H](CN(C)C(=O)CN(C)C)O2 | 4.3 | 6.4
CC=Cc1ccc2n(c1=O)C[C@@H]1[C@@H](CO)[C@H](C(=O)Nc3ccc(-c4ccccc4)cc3)N(CCC)[C@H]21 (mixture of isomers) | -25.1 | -12.7
C[C@@H]1CN([C@H](C)CO)C(=O)c2cccc(NS(=O)(=O)c3cccs3)c2O[C@@H]1CN(C)Cc1ccc(C(=O)Nc2ccccc2N)cc1 | 0.2 | -7.5
C[C@@H]1CN([C@@H](C)CO)C(=O)Cc2cc(NC(=O)Cc3ccccc3)ccc2O[C@@H]1CN(C)C(=O)Nc1cccc2ccccc12 | 22.8 | -0.9
C[C@H](CO)N1C[C@H](C)[C@H](CN(C)C(=O)Nc2ccc(C(F)(F)F)cc2)Oc2c(NC(=O)C3CCCCC3)cccc2C1=O | u | x
COCC(=O)N(C)C[C@@H]1Oc2cc(C#CC(C)(C)O)ccc2S(=O)(=O)N([C@@H](C)CO)C[C@H]1C | 0.6 | 0.8
C[C@@H]1CN([C@H](C)CO)C(=O)Cc2cc(NC(=O)NC3CCCCC3)ccc2O[C@@H]1CN(C)Cc1ccc(C(=O)O)cc1 | 17.8 | 4.4
C[C@H]1CN([C@@H](C)CO)C(=O)c2cccc(NS(C)(=O)=O)c2O[C@@H]1CN(C)S(=O)(=O)c1cccs1 | 16.8 | -2.0
C[C@@H]1CCCCO[C@H](CN(C)C(=O)Cc2ccccc2)[C@@H](C)CN([C@@H](C)CO)C(=O)c2cc(NC(=O)Nc3ccccc3)ccc2O1 | -8.0 | -11.6
C[C@H](O)C#Cc1ccc2c(c1)O[C@H](CN(C)C(=O)CC1CC1)[C@H](C)CN([C@H](C)CO)S2(=O)=O | 1.2 | -5.3
C/C=C/c1ccc([C@@H]2[C@H](CO)N(CC3CC3)C23CN(C(=O)c2ccc4c(c2)OCO4)C3)cc1 | u | x
COC(=O)[C@@H]1[C@@H](CO)[C@@H]2Cn3c(ccc(-c4cccc(C(=O)N(C)C)c4)c3=O)[C@@H]2N1CC1CC1 | 18.9 | 18.3
CCNC(=O)[C@H]1[C@H](CO)[C@H]2Cn3c(ccc(C4=CCCC4)c3=O)[C@@H]1N2S(=O)(=O)c1cn(C)cn1 | 12.0 | 5.0
COc1ccc(S(=O)(=O)Nc2ccc3c(c2)C(=O)N([C@H](C)CO)C[C@H](C)[C@@H](CN(C)C(=O)Nc2c(C)noc2C)O3)cc1 | 9.7 | 3.6
C[C@H](CO)N1C[C@H](C)[C@H](CN(C)C(=O)CN(C)C)Oc2ncc(C#C[C@@H](C)O)cc2C1=O | 9.3 | 3.5
CO[C@@H]1CN(C)C(=O)c2cc(NC(C)=O)ccc2OC[C@@H](C)N(C(=O)c2ccc(F)cc2)C[C@@H]1C | 10.7 | 11.8
O=C(c1cnccn1)N1CC(=O)N2[C@H](CO)[C@H](c3ccc(C#CC4CC4)cc3)[C@H]2C1 | -23.3 | -13.8
C[C@H](CO)N1C[C@H](C)[C@@H](CN(C)C(=O)C2CCCCC2)Oc2cc(-c3ccc(C(=O)N(C)C)cc3)ccc2S1(=O)=O | -0.2 | -5.0

Some of the compounds tested. The share of hits here may be higher or lower than overall.
